Marburg entry inh – blocks Marburg virus binding to or entry into cells. Marburg virus pseudotyped entry inhibition, cell reporter; control for the full effect not named in the record; about a third of the inactives were read at about 46 µM. Potency, µM (doses to about 37.8 µM), for the others: top-dose activity change, negative = inhibition, usual class: inhibitors. 1.8% of 300,000 active; active = well fitted inhibition curve with a large enough effect; inconclusive = small, poorly fitted or top-dose-only effect, or effect the other way; inactive = flat fitted curve, though single readings scatter; tested in HEK293 cells; about a fifth of its hits are not listed in these tables; further: on the % scale 0 is the no-effect control and ±100 the full control effect; luciferase read-out
RE007 growth inh – less growth of the S. pombe RE007 Vpr strain | S. pombe RE007 Vpr strain, BacTiter-Glo ATP luminescence, 24 h; control for the full effect not named in the record | Potency, µM (highest dose often 92.2 µM), for inactives: at the highest dose activity change, negative = less growth | 0.21% of 360,000 active | AID 651644; active = well fitted falling curve with a large enough effect; inconclusive = small, poorly fitted or top-dose-only effect; inactive = no such curve, though single readings can be large or run the other way;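 further: on the % scale 0 is the no-effect control and ±100 the full control effect; nearly all actives have a fitted effect of over 50% in size; the assay follows cell death caused by Vpr and the record does not say whether a fall means rescue or toxicity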
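Fission yeast strain RE007, carrying one chromosomally integrated HIV-1 vpr copy, was seeded at OD 0.01 in PMG+AL medium with 23 nL pinned compound. After 24 h at 30 °C and 99% humidity, viability was read by BacTiter-Glo luminescence.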
NS1 function inh – blocks influenza NS1 protein function. S. cerevisiae slowed by influenza A NS1, growth recovery by OD600. Potency, µM (highest dose often 46.1 µM), for inactives: at the top dose activity, positive = more growth. 0.4% of 270,000 active. AID 2326; further: actives are rising curves; nearly all actives have a fitted effect of over 50% in size
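Recovery from NS1-induced slow growth read by OD600 in budding yeast switched to galactose assay medium (pH 6.0, -URA) at 1:100 dilution. Compound 23 nl per well; the matching strain lacking NS1 serves as control.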
SARS PLpro yeast – inhibitors of SARS-CoV papain-like protease in yeast; S. cerevisiae expressing SARS-CoV PLpro, growth rescue; control for the full effect not named in the record; Potency, µM (titrated, usually from 32.9 µM), for inactives: top-dose activity, positive = growth rescue; 0.19% of 330,000 active; AID 485353; further: 0% is about no effect; nearly all actives have a fitted effect of over 55% in size; growth read by luminescence after 48 h
Cruzain Triton – inhibitors of Trypanosoma cruzi cruzain with detergent; 0.43% of 200,000 active; AID 1478; P25779; Potency, µM, inactives show max response, negative = inhibition, usual class: inhibitors; purified cruzain, Z-FR-AMC fluorescence, 0.01% Triton; active means well fitted curve in the direction sought with a large enough effect; inconclusive means small, poorly fitted or top-dose-only effect, or another doubt; inactive means no such curve, though single readings can be large; an effect the other way counts as inactive or inconclusive;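 further: plate controls were neutral wells for no effect and buffer without enzyme for full effect; nearly all actives have a fitted effect of over 40% in size; top concentration of the series not given in the record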
Target sequence (P25779 123-467 limits assumed): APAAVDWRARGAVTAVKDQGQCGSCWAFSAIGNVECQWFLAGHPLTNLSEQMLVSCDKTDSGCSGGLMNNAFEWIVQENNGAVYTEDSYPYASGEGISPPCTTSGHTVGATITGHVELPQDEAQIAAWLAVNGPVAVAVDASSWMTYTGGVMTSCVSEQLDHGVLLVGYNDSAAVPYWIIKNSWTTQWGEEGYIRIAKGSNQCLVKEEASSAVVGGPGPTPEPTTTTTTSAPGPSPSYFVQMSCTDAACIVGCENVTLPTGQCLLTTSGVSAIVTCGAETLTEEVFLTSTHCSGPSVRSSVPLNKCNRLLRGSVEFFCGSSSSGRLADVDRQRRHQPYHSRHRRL
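Z-FR-AMC hydrolysis (2 uM substrate) by cruzain (1.5 nM) monitored kinetically at ex 360/em 450 nm after 15 min room-temperature compound exposure; 0.01% Triton X-100, pH 5.5, 5 mM DTT.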
LASV entry inh – blocks Lassa virus binding to or entry into cells | Lassa virus pseudotype entry inhibition, cell reporter; control for the full effect not named in the record | Potency, µM (series often up to 37.9 µM), for inactives: top-dose activity change, negative = inhibition, most hits filed as inhibitors | 1.2% of 300,000 active | AID 540256; active means well fitted inhibition curve with a large enough effect; inconclusive means small, poorly fitted or top-dose-only effect, or effect the other way; inactive means flat fitted curve, though single readings scatter; tested in HEK293 cells; further: on the % scale 0 is the no-effect control and ±100 the full control effect; nearly all actives have a fitted effect of over 50% in size; luciferase read-out
2A StopGo – lowers the luciferase signal of an FMDV 2A StopGo reporter. human cells with a luciferase reporter of 2A StopGo recoding; control for the full effect not named in the record. Potency, µM (top dose mostly 57.9 µM), inactives show top-dose signal change, negative = less light. AID 1159524. 1.2% of 410,000 active; active = well fitted falling curve with a large enough effect; inconclusive = small, poorly fitted or top-dose-only effect; inactive = no such curve, though single readings can be large or run the other way; tested in HEK293T cells; further: on the % scale 0 is the no-effect control and ±100 the full control effect; nearly all actives have a fitted effect of over 45% in size; luciferase light after 4 h
Cruzain noTriton – cruzain (T. cruzi) inhibition without detergent; P25779; purified cruzain, Z-FR-AMC fluorescence, no detergent; Potency, µM, without a hit: max response, negative = inhibition, hits mostly inhibitors; 2.3% of 200,000 active; active means well fitted curve in the direction sought with a large enough effect; inconclusive means small, poorly fitted or top-dose-only effect, or another doubt; inactive means no such curve, though single readings can be large; an effect the other way counts as inactive or inconclusive;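 further: plate controls were enzyme without inhibitor for no effect and buffer without enzyme for full effect; nearly all actives have a fitted effect of over 40% in size; top concentration of the series not given in the record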
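Purified cruzain at 1.5 nM, pre-incubated 15 min with compound at room temperature in 100 mM sodium acetate pH 5.5, 5 mM DTT, 0.00005% Triton X-100. Reaction started with 2 uM Z-FR-AMC; AMC fluorescence increase over 60 s gives rate.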
* hit, by the source's call; ? = inconclusive; . = no result given; & = joins results of further samples; [ ] = another dose, or the depositor's remark. Unless noted, the call rests on the fitted dose curve; in most records, active means well fitted rising curve with a large enough effect; inconclusive means small, poorly fitted or top-dose-only effect; inactive means no such curve, though single readings can be large or run the other way. Potency means the concentration at half of the fitted maximal effect. Outcome played no part in choosing rows. About 4.7% of those tested had a hit in this group.

SMILES | Marburg entry inh | RE007 growth inh | NS1 function inh | SARS PLpro yeast | Cruzain Triton | LASV entry inh | 2A StopGo | Cruzain noTriton
COc1ccc(C=NN=C2c3ccccc3-c3ccccc32)cc1O | ? | -3% | . | . | . | -3%[46.1 µM] | -8% | .
O=c1c2ccccc2nc2ccccn12 | ? | 15% | . | -4% | . | 26% | 65%[activator] | .
CCn1cc(/C=C(\NC(=O)c2ccccc2OC)C(=O)NCCCn2ccnc2)c2ccccc21 | . | -14% | 1% | 5% | . | . | 34%[activator] | .
CCOc1ccc(CCNC(=O)CSc2cc(=O)n(C)c3cc(Cl)ccc23)cc1OCC | ? | 6% | -7% | -12% | -1.8%&-0.2% | 14%[46.1 µM] | -20%&-6% | ?
Cn1c(COc2ccccc2)nnc1SCC(=O)Nc1ccc(N2CCOCC2)cc1 | -1%[46.1 µM] | 20% | 9% | -8% | . | -2% | 2% | .
O=C(Nc1cc(F)ccc1F)C1COc2ccccc2C1 (stereo not given) | . | . | . | . | -2.4% | 4%[46.1 µM] | 20% | -1%
O=C(COc1ccc(Cl)cc1)Nc1ccccc1Cl | -1% | -21% | -27% | 0% | . | ? | 64%[activator] | .
Cc1cccn2c(=O)c3cc(C(=O)N4CCC5(CC4)OCCO5)n(C)c3nc12 | ? | -4% | -16% | -19% | -2.6% | ? | 25% | 0%
CC(=O)Nc1cccc(C(=O)/C=C/c2ccco2)c1 | 24% | -10% | -134% | -17% | -16% | 3% | 29% | -13%
O=C(CC(C(=O)O)c1cccc(Br)c1)c1ccc(Cl)cc1 (stereo not given) | . | 4% | -5% | 2% | . | . | -4% | .
c1coc(-c2nnc(SCc3nc4ccccc4[nH]3)o2)c1 | ? | 14% | -49% | 0% | -4.6% | 15% | -21% | -10%
C=CCN(C(=O)c1cc(C)cc(C)c1)C1(C(=O)Nc2ccccc2)CCN(C(C)C)CC1 | . | 3% | . | -1% | . | -22% | 26% | .
CCN(CC)CCNC(=O)/C(=N\O)c1ccccn1 | -3% | 0% | 4% | 1% | . | -13% | -10% | .
COc1cc(/C=C(\C#N)c2ccccn2)ccc1OCc1ccccc1 | 3% | 0% | -15% | 23% | -12% | 13% | 39%[activator] | -1%
CCc1ccccc1NC1=CC(=O)CC(C)(C)C1 | -6%[46.1 µM] | 10% | . | 1% | . | -12% | -12% | .
O=C(Cc1cccs1)Nc1nnc(SCc2ccc(Br)cc2)s1 | 15% | 10% | 4% | 13% | -3.4% | 14% | -2% | 14%
CCOC(=O)c1cc(-c2ccc(C)cc2)n(CC(=O)Nc2ccc(OC)cc2OC)c1C | ? | . | . | . | -0.1% | . | 0% | -3%
CCCCSc1nc2c(c(C(F)(F)F)c1C#N)CCC2 | -25% | -9% | -9% | 5% | -5.5% | 16% | -9% | 5%
Nn1c(SCc2cn3ccsc3n2)nnc1-c1ccncc1 | -3% | -2% | 0% | 3% | 0.8% | 19% | -14% | -2%
O=C(CCNS(=O)(=O)c1cccc2nonc12)Nc1ccc(F)cc1 | ? | . | . | . | -1.4% | 3%[46.1 µM] | -4% | -4%
COc1cccc(C(c2c(N)[nH]c(=S)[nH]c2=O)c2c(N)[nH]c(=S)[nH]c2=O)c1 | 1%[46.1 µM] | -23% | ? | 6% | . | -2% | 5% | .
CCOc1ccccc1NC(=S)/C(=C(\[O-])c1ccc2c(c1)OCCO2)[n+]1ccc(CC)cc1 | 7.3µM* | -9% | 7% | 6% | -4.3% | 12% | 2% | -27%
COc1cc(C(F)(F)F)c(C(=O)N(C)c2ccc(Cl)cc2)cn1 | ? | 2% | -3% | 0% | . | ? | ? | .
COc1ccccc1NC(=O)c1cn(CCC#N)nc1-c1ccc(F)cc1 | ? | 5% | 5% | -6% | . | -3%[46.1 µM] | -9% | .
S=C(Nc1ccc(Cl)cc1)NC1CCN(Cc2ccccc2)CC1 | ? | 1% | 9% | -20% | -2.2% | ? | ? | 8%
CCc1ccc(C(C(=O)NCc2ccccc2)N(C(=O)c2csnn2)C2CC2)cc1 (stereo not given) | -30%[46.1 µM] | -13% | 12% | 1% | . | -17%[46.1 µM] | 17% | .
Cc1c(C)n(CC(O)CN2C(=O)c3ccccc3S2(=O)=O)c2ccccc12 (stereo not given) | 8% | ? | -1% | -26% | -6.8% | ? | ? | -9%
Cc1ccc(/C=N/n2c(-c3ccco3)n[nH]c2=S)cc1 | -2% | -14% | 1% | 3% | . | -9% | -16% | .
CCOC(=O)Cn1c(C)nc2ccccc21 | 1% | -4% | 7% | -3% | 3.0% | 7% | -18% | 7%
C=CCNC(=S)NNC(=O)c1cccc(Br)c1 | 21% | -8% | -4% | 2% | -2.8% | 8% | 8% | 3%
O=C(CSc1nc(-c2cccs2)cc(C(F)(F)F)n1)NCCCn1ccnc1 | -35% | -12% | -5% | -8% | -7.7% | -1% | . | -16%
Cc1ccc(-c2nnn(CC(=O)N(CC(=O)NC3CCCC3)c3ccc(F)cc3)n2)o1 | 4%[46.1 µM] | -2% | 0% | -1% | . | -18% | 19% | .
COc1ccc(C2=NN(C(=O)/C=C/c3ccccc3)C(c3ccccc3)C2)c(OC(C)=O)c1 (stereo not given) | ? | . | 28% | 15% | -7.2% | ? | 0% | -24%
Cc1ccc(OC(=O)c2ccccc2)cc1C | 17% | 14% | . | . | . | ? | 45%[activator] | .
Cc1ccc(CNC(=O)c2nccnc2C(=O)O)cc1 | ? | 11% | 7% | 1% | . | -2%[46.1 µM] | -16% | .
O=Cc1ccc(C(=O)OCC(=O)NC(=O)Nc2ccccc2F)cc1 | 1%[46.1 µM] | 8% | . | -5% | . | 9%[46.1 µM] | 13% | .
Brc1ccc(CN2C3=NCCCN3c3ccccc32)cc1 | 10µM* | -14% | -7% | 2% | -2.9% | ? | ? | -10%
COc1ccc2c(c1)O[C@H](c1ccc3c(c1)OCO3)[C@@H](OC(=O)N[C@H]1CCCc3ccccc31)C2=O | ? | 1% | 30% | 0% | 0.7%&-0.6% | 25% | 37%[activator] | ?
Cc1nc2nc(C)c(CCC(=O)N3CCC4(CC3)OCCO4)c(C)n2n1 | 23% | -11% | -13% | -2% | 2.1% | -2%[14.3 µM] | 10% | 1%
OCCNCc1cccc(OCc2ccc(Cl)cc2)c1 | ? | 5% | 0% | 0% | . | -22%[46.1 µM] | 16% | .
Cc1ccc2cc(C#N)c(N3CCCN(C(=O)C4CCCO4)CC3)nc2c1C (stereo not given) | -17% | -8% | -31% | -5% | -9.3% | -16% | -20% | ?
CCCCc1ccc(NC(=O)C(=O)NCCN2CCN(C(=O)c3ccc([N+](=O)[O-])cc3)CC2)cc1 | -13%[46.1 µM] | 3% | 22% | 3% | . | 2%[46.1 µM] | -10% | .
COc1ccc(C2C(C(=O)Nc3ccccc3)=C(C)Nc3c(C(=O)Nc4ccccc4)cnn32)cc1 (stereo not given) | . | . | . | . | -8.0% | -15%[46.1 µM] | -19% | 0%
CCCOc1c(Cl)cc(C(=O)N(Cc2cccc(OC)c2)C2CCS(=O)(=O)C2)cc1Cl (stereo not given) | ? | . | . | . | -6.9% | 7%[46.1 µM] | -22% | ?
O=C(N/N=C/C(Br)=C/c1ccccc1)c1ccccc1[N+](=O)[O-] | . | -8% | 6% | -7% | . | . | 28% | .
CCOC(=O)c1sc(=NC(=O)c2ccc(S(=O)(=O)N3CC(C)OC(C)C3)cc2)n(C)c1C (stereo not given) | -7%&-20% | -4% | -3% | -5% | -5.6% | 13% | 10% | ?
Cc1ccc(C(=O)CC2(O)C(=O)N(Cc3ccccc3Cl)c3ccccc32)o1 (stereo not given) | -11% | 6% | -31% | -7% | -5.4% | -9% | -16% | -18%
CC(=O)N1[C@@H]2CC3C4CC=C5C[C@@H](O)CC[C@]5(C)C4CC[C@]3(C)[C@@]21C(C)=O (stereo not given in full) | ? | -11% | -50% | -73% | 0.5% | ? | 0% | -2%
CCN(CC)CCOC(=O)C1(c2ccc(OC)c(OC)c2)CCCC1 | -14%&-14% | -2% | 3% | 3% | 1.5% | 3% | -25% | -3%
CCOC(=O)N1CCN(CC(=O)Nc2ccc(F)cc2F)CC1 | . | 5% | 4% | 0% | . | . | 7% | .
COc1ccc(/C=N\Nc2ccccc2[N+](=O)[O-])c(C(=O)O)c1OC | . | -9% | 4% | 0% | . | . | -13% | .
COC(=O)C1=C(C)NC(=O)NC1c1ccc(-c2ccccc2Cl)o1 (stereo not given) | -9%[46.1 µM] | 8% | . | -3% | . | -13% | ? | .
COC(=O)c1cc2oc3ccccc3c2n1CC(=O)Nc1ccc(N(C)C)cc1 | 8%[46.1 µM] | . | . | . | -0.7% | . | -5% | -6%
Cc1ccc(S(=O)(=O)c2nnn3c2nc(N2CCC(C)CC2)c2cc(Cl)ccc23)cc1C | ? | . | . | . | -4.1% | . | 7% | ?
CC(C)NC(=O)C(=O)NCCC1CCCCN1S(=O)(=O)c1cccs1 (stereo not given) | 11% | -10% | . | -6% | . | 14% | -25% | .
COc1ccc(C(=O)N2CCC(NC(=O)C(Cc3ccccc3OC)NC(C)=O)CC2)cc1 (stereo not given) | -5%[46.1 µM] | -9% | 11% | -4% | . | 1% | -12% | .
CC1CC2(CCCC2)N(C(=O)N(C)C)c2ccc(F)cc21 (stereo not given) | . | 9% | -2% | 2% | . | . | -18% | .
COc1cc(/C=N/n2cnnc2)ccc1OCc1ccccc1 | 20% | -3% | -37% | -9% | -7.6% | 0% | 4% | -14%
CNC(=O)CC1C(=O)N(c2ccc(F)cc2)C(=S)N1NC(=O)c1ccc(Cl)cc1 (stereo not given) | ? | 14% | 9% | 3% | . | -1%[46.1 µM] | 7% | .
CC(CCc1ccccc1)NC(=O)c1ccccc1C(=O)O (stereo not given) | 1%[46.1 µM] | 5% | 5% | -1% | . | 13%[46.1 µM] | -6% | .
Cc1nc2cc(C(=O)OCC(=O)Nc3ccc(C#N)cc3)ccc2n1-c1ccccc1 | ? | 8% | 4% | 9% | -7.4% | ? | 18% | ?
O=C(COc1cc(Cl)ccc1Cl)Nc1ccc(Cl)cc1C(=O)c1ccccc1 | . | . | . | . | -0.1% | ? | 2% | 2%

Screening data: PubChem BioAssay, National Center for Advancing Translational Sciences (NCATS)
